Assay outcomes as filed in PubChem.
PINK1 expr mod: A Quantitative High throughput Screen to Identify Chemical Modulators of PINK1 Expression | PINK1 immunofluorescence, high-content cytometry, 24 h | Potency, µM (top dose mostly 76.6 µM), for inactives: at the highest dose activation (PINK1 increase), usual class: activators | hit rate 0.2% among 410,000 | AID 624263, 2012; active = well fitted activation curve with a large enough effect; inconclusive = small, poorly fitted or top-dose-only effect; inactive = flat fitted curve, though single readings scatter; cell line not stated here;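 also: potency is read from the fitted curve at half-maximal effect; % of control where 0% means no effect; nearly all actives have a fitted effect of over 65% in size; a mitochondrial uncoupler was the plate control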
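PINK1 protein, normally rapidly degraded, was detected by immunofluorescence after 24 hour compound treatment of a stable cell line. Titration data (5 concentrations) came from laser-scanning cytometry, with CCCP-treated wells as controls.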
Six1-Eya2 blk: qHTS Assay for Inhibitors of the Six1/Eya2 Interaction; hit rate 0.56% among 360,000; AID 651725, 2012; AlphaScreen GST-Six1/His-Eya2 binding, biochemical; stronger effect = lower value; control for the full effect not named in the record; Homeobox protein SIX1 (Homo sapiens) + Protein phosphatase EYA2 (Homo sapiens), …; activity change, % (concentration not given with the values); in the data active = activity change below about -65%; inconclusive = about -30% to -65%; inactive = above about -30%; also: % is scaled to controls: 0 for no effect and ±100 for the full control effect
Target sequence (O00167 whole entry, looked up): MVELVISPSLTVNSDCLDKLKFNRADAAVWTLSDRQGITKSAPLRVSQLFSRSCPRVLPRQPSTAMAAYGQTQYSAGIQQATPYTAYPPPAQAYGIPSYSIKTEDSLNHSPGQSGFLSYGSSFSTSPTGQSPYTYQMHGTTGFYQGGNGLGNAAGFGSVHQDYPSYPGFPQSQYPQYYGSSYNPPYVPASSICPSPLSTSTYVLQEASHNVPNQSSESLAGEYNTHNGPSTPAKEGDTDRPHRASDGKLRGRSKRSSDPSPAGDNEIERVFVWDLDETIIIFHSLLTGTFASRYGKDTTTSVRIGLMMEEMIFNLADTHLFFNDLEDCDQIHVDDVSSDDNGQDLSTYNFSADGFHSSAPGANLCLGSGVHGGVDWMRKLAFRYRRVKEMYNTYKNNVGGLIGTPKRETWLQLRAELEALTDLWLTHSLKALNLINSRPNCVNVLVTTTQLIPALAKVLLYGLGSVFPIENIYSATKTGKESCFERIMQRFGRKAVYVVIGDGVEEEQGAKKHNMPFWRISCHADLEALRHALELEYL
Target sequence (Q15475 whole entry, looked up): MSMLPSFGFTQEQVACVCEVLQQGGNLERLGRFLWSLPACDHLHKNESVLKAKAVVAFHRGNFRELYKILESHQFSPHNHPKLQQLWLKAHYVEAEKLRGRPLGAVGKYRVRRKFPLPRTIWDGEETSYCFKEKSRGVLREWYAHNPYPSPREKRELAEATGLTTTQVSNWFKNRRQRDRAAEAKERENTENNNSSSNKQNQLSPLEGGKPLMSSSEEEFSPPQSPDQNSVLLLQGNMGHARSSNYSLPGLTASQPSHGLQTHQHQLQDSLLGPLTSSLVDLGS
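GST-Six1 + His-Eya2 (5X stock: 250/500 nM); Tris pH 8.0, 300 mM NaCl, 0.05% BSA, 0.02% Tween 20; GSH donor/Ni acceptor beads; 1 h 37 °C dark; AlphaScreen readout.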
D2 ag: Beta-Arrestin HTS for Positive Allosteric Modulators of the Human D2 Dopamine Receptor: Agonists. DiscoveRx PathHunter D2 beta-arrestin, luminescence, 90 min; 100% = 57 uM dopamine signal. D(2) dopamine receptor (Homo sapiens), P14416. activation, % (no concentration beside the values). hit rate 0.084% among 360,000. AID 624465, 2012; in the data active = activation above about 40%; inconclusive = about 15% to 40%; inactive = below about 15%; also: compound concentration not given in the record; the text of the record calls up to 30% inactive
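DiscoveRx PathHunter D2 beta-arrestin cells (2,100/well) attached overnight, then compound-stimulated 90 min at 37 C in HBSS/10 mM HEPES/0.1% Tween-20 buffer; beta-galactosidase complementation read by luminescence after 1 h at ambient temperature. Dopamine 57 uM final (EC100) as control.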
D2 PAM: Beta-Arrestin HTS for Positive Allosteric Modulators of the Human D2 Dopamine Receptor: Potentiators; AID 624464, 2012; potentiation, % (concentration not given with the values); hit rate 0.23% among 360,000; D(2) dopamine receptor (Homo sapiens), P14416; DiscoveRx D2 beta-arrestin cells, luminescence, 90 min; 100% = 57 uM dopamine signal; active = potentiation of 50% or more; inconclusive = 30% to 50%; inactive = 30% or less;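 also: compound concentration not given in the record; tested on top of an EC20 dose of dopamine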
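PathHunter beta-arrestin assay in DiscoveRx D2 cells. Compounds were added with an EC20 of dopamine (50 nM final) for 90 min at 37 deg C. Luminescence was read 1 h after detection reagent, with 57 uM dopamine as the EC100 control.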
TRPML1 ag: qHTS for Agonists of the Human Mucolipin Transient Receptor Potential 1 (TRPML1); Mucolipin-1 (Homo sapiens), Q9GZU1; TRPML1-expressing cells, Ca2+ dye fluorescence, FDSS; host cell line not named in the record; reference of the full effect not given here; activation, % (concentration not given with the values); hit rate 0.12% among 410,000; AID 624414, 2012; in the data active = activation above about 50%; inconclusive = about 30% to 50%; inactive = below about 30%; also: 0% is about no effect; the text of the record puts the active cut at 80%
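Cells: TRPML1-DL, 1X Tet inducer, ~16 h at 37 degrees C/5% CO2. Dye: ABD Ca8 no-wash + quencher, 45-90 min RT. Read: 10 s baseline, compound add, 110 s agonist phase; 54-4 EC80 (4uM final), 110 s antagonist phase.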
CtBP-E1A inh: qHTS Assay for Inhibitors of the CtBP/E1A Interaction; hit rate 0.49% among 340,000; AlphaScreen GST-E1A/His-CtBP binding, 1536-well; stronger effect = lower value; control for the full effect not named in the record; CtBP / adenovirus E1A interaction (AlphaScreen); activity change, % (concentration not given with the values); in the data active means activity change below about -65%; inconclusive means about -30% to -65%; inactive means above about -30%; also: % is scaled to controls: 0 for no effect and ±100 for the full control effect
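Protein mix (5X: 125 nM each GST-E1A, His-CtBP) was incubated with pinned compound 2 h at 37 deg C in dark, in 50 mM Tris pH 8.0 buffer with 300 mM NaCl. Glutathione donor and nickel acceptor beads followed; AlphaScreen signal read after 1 h.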
Starred values were filed as active, the others as inactive; ? = inconclusive; / = not tested or not shown; [ ] = remark or other dose.

SMILES	PINK1 expr mod	Six1-Eya2 blk	D2 ag	D2 PAM	TRPML1 ag	CtBP-E1A inh
Cc1ccccc1/C=N/n1c(COc2ccccc2)n[nH]c1=S	15%	-2	4.7	-3	1.1	3
CC1CCN(c2ncccc2C(=O)O)CC1	0.1%[38.3 µM]	-2	-1.4	-7	-0.4	9
COc1ccc([N+](=O)[O-])cc1NC(=O)C(C)OC(=O)c1ccccc1C(=O)c1ccc(Cl)cc1 (stereo unspecified)	0.4%	-12	3.5	-11	1.1	-8
O=C(NCCc1ccc(C(F)(F)F)cc1)c1ccc2c(c1)OCO2	1.4%	3	1.7	-2	0.6	11
CC(C)c1ccc(NC(=O)C(c2ccccc2)N2CCOCC2)cc1 (stereo unspecified)	0.7%	0	1.5	-3	-0.5	7
CCOC(=O)c1c(NC(=O)c2ccoc2C)sc(C)c1C	-0.8%	8	-4.6	-14	1.4	2
CN(CC(=O)Nc1cccc(C(F)(F)F)c1)C1=NS(=O)(=O)c2ccccc21	6.5%	-23	-1.1	-9	0.4	0
COC(=O)c1ccc(CN2CCN(CCCc3ccccc3)C(CCO)C2)cc1 (stereo unspecified)	-0.5%	-2	-2.6	-32	0.1	-12
COc1ccc(CCN2CC(C(=O)NCc3c(C)n[nH]c3C)CCC2=O)cc1 (stereo unspecified)	-0.1%	0	-2.8	-5	0.5	9
COc1ccc(NS(=O)(=O)c2cc(NC(=O)CCc3ccccc3)ccc2N2CCOCC2)cc1	-1.5%	-6	-2.2	-13	0.3	-4
Cc1ccc(N(CC(=O)Nc2ccc3c(c2)OCCO3)S(C)(=O)=O)cc1	-0.1%	8	-0.7	-9	0.3	-11
Cc1ccc(C(=O)Nc2ccnc(-c3cccnc3)n2)cc1	1.5%	-4	-3.4	-4	3.5	-16
CC1(NC(=O)NCCCCCCNC(=O)NC2(C)CCS(=O)(=O)C2)CCS(=O)(=O)C1 (stereo unspecified)	-0.1%	0	-3.8	-10	-0.3	1
CCOc1ccc(CONS(=O)(=O)c2ccc(NC(C)=O)cc2)cc1Cl	?	-11	-2.7	-2	0.3	-2
N/C(=N\OC(=O)c1ccco1)c1ccc(Br)cc1	-0.6%	6	9.7	52*	-1.4	7
CCCc1ccc2oc(C(=O)N(Cc3ccncc3)CC3CCCO3)c(C)c2c1 (stereo unspecified)	-1.2%	-7	0.8	-6	0.9	-3
CCN(Cc1ccncc1)C(=O)c1cc(COc2c(C)cccc2C)on1	0.5%	0	-0.6	0	2.6	6
O=C(NCCCN1CCCC1)c1cc2c(Cl)nc3ccccc3c2s1	-3.3%	-12	8.2	-3	0.5	-28
CCOC(=O)CC1(NC(=O)c2cc(COc3c(F)cccc3F)on2)CCCCC1	1.8%	24	-2.3	-10	-1.3	/
COc1ccc(NC(=O)c2onc(C)c2Cl)cc1	1.4%	13	-4.0	-1	-0.2	-18
Cc1ccc(S(=O)(=O)n2c(CN3CCCC(C)C3)nc3ccccc32)cc1 (stereo unspecified)	/	2	1.3	-29	4.0	-1
C1=C(CCNc2ncnc3c2cnn3-c2ccccc2)CCCC1	6.0%	7	0.1	16	-0.1	-9
CC1=C(C#N)C(c2ccoc2)C(C(=O)OCc2ccccc2)=C(N)S1 (stereo unspecified)	-1.5%	0	-2.9	-19	0.7	-7
C[C@@H]1CCC[C@]2(O[C@H](CCO)C[C@H](O)[C@H]2O)O1	-0.8%	-2	-1.8	-6	0.1	-15
CCOC(=O)c1c(P(=O)(N2CCOCC2)N2CCOCC2)noc1N	-1.9%	0	-2.8	-3	-1.0	5
Additional records follow:
SMILES	PINK1 expr mod	Six1-Eya2 blk	D2 ag	D2 PAM	TRPML1 ag	CtBP-E1A inh
CC[C@H](C)[C@@H]1NC(=O)c2cc([N+](=O)[O-])cc(I)c2SC[C@@H](C(N)=O)NC(=O)[C@H](CCCCN)NC1=O	1.2%	15	10	3	-0.5	0
COC(=O)C1=C(C)NC(C)=C(C(=O)OCCN(C)Cc2ccccc2)C1c1cccc([N+](=O)[O-])c1 (stereo unspecified)	6.1%	-10	-7.6	-30	3.1	-27
CCOc1ccc(N2CC(C(=O)NCc3ccc(C)n3C)CC2=O)cc1 (stereo unspecified)	2.1%	14	-5.4	6	-0.4	21
O=C(C1=C[C@H](c2ccc(C(F)(F)F)cc2)C[C@H](OCCCCO)O1)N1CCN(Cc2ccc3c(c2)OCO3)CC1	0.5%	-11	-1.4	-18	-0.7	-10
COc1ccc(N2CCN(C(CNC(=O)C(=O)NCCCn3ccnc3)c3ccco3)CC2)cc1 (stereo unspecified)	0.7%	-1	-2.0	-18	/	-3
CCOc1ccccc1Nc1nnc(SCC(=O)NC(Cc2c[nH]c3ccccc23)C(=O)O)s1 (stereo unspecified)	-0.3%	?	-1.6	10	-0.1	-24
Cn1ncc(Br)c1C(=O)Nc1cccc(C(F)(F)F)c1	4.5%	22	1.4	0	1.8	9
O=C(NC1CCN(C(=S)NCc2ccco2)CC1)NC12CC3CC(CC(C3)C1)C2	-0.7%[38.3 µM]	-2	-4.0	-7	0.8	0
COc1ccc(-c2n[nH]c(C)c2-c2cnn(-c3ccccc3)c2)c(O)c1C	4.2%	-8	2.7	4	3.5	-17
Cc1cc(C(=O)O)cc(S(=O)(=O)NNC(=O)c2cccs2)c1C	-0.4%	2	-3.2	-9	-0.1	-15
O=C1c2ccccc2NC(c2ccccc2Cl)N1N=C1CCCCCC1 (stereo unspecified)	3.8%	-1	-5.1	-3	-1.6	7
N/C(=N\OC(=O)CCCOc1ccccc1)c1cccc([N+](=O)[O-])c1	1.8%	5	-0.5	-2	-0.7	-21
O=S(=O)(Nc1ccccn1)c1cccc(S(=O)(=O)c2ccc(Cl)cc2)c1	3.8%	6	3.8	-3	-1.4	-4
Cn1c(N)c(C(=O)CSc2nnnn2-c2ccccc2)c(=O)n(C)c1=O	0.4%	21	2.2	1	1.3	10
O=C(COC(=O)CCCc1c[nH]c2ccccc12)Nc1ccc2c(c1)OCO2	-0.5%	-17	-2.8	-4	0.5	-8
S=c1[nH]nc(-c2ccccn2)n1/N=C/c1cccc(Cl)c1	5.0%	?	6.7	-10	0.1	?
COc1ccc(NC(=O)C(Sc2nnc(-c3ccncc3)n2-c2ccccc2C)c2ccccc2)cc1Cl (stereo unspecified)	3.6%	-27	-9.0	-10	0.2	-23
CC(=O)N1CCN(Cc2cc(=O)oc3cc(C)c(C)cc23)CC1	-0.6%	2	-3.3	-6	-0.2	5
CCOc1ccc(NCc2ccccc2OCc2cccc(F)c2)cc1	?	1	-1.8	1	1.3	4
C/C(=N/NC(=O)c1cccs1)c1ccc(N2CCOCC2)cc1	16%	7	-4.1	-14	-0.1	-6
CCOC(=O)[C@H]1[C@H]2COc3ccc(Cl)cc3[C@@H]2N2C(=O)c3cc(OC)ccc3NC(=O)[C@@]12C	0.9%	-6	-1.0	-12	1.8	-13
O=C(Nc1cccc2ncccc12)c1cccnc1	0.2%	3	-1.6	2	-0.2	-2
O=[N+]([O-])c1ccc(N=NN(CCO)CCO)cc1	5.1%	1	7.7	-6	0.7	/
CCN=c1scc(-c2cccs2)n1/N=C/c1cc(OC)ccc1O	4.1%	?	-1.3	3	0.1	?
OC(COc1ccc2c(c1)OCO2)CN1CCN(c2ccccc2)CC1 (stereo unspecified)	3.3%	-1	?	-14	-0.1	-26
Continued.
SMILES	PINK1 expr mod	Six1-Eya2 blk	D2 ag	D2 PAM	TRPML1 ag	CtBP-E1A inh
CC(=O)Nc1sc(C)c(C)c1C(=O)OCC(=O)Nc1ccccc1C(F)(F)F	9.3%	4	-3.2	-1	-0.6	2
CCOc1cc2[nH]c(=S)n(CC3CCCO3)c(=O)c2cc1OCC (stereo unspecified)	8.9%[38.3 µM]	-7	-3.4	4	-0.7	-3
COc1ccc(CCNC(=O)C2CCN(c3ccc(N4CCOCC4)nn3)CC2)c(OC)c1	-1.2%	-4	-9.1	-7	-1.2	2
CCNC(=O)CN(c1ccc(C)cc1)S(=O)(=O)c1ccccc1	0.1%	3	-0.3	-3	-0.2	-1
CCOC(=O)N/N=C\c1ccc(-c2cc(Cl)ccc2Cl)o1	2.9%	-9	0.5	-5	0.3	7
Cc1cc(=O)oc2cc(NC(=O)C3CC(=O)N(Cc4ccccc4)C3)ccc12 (stereo unspecified)	-1.3%	-14	-1.0	-27	3.6	-28
COc1ccccc1CNC(=O)CCC(=O)Nc1nnc(C(C)C)s1	-2.6%	-1	-3.2	-7	0.9	-11
CCNC(=O)C1(C)CCCN(C(=O)c2sccc2C)C1 (stereo unspecified)	-0.4%	12	-2.2	-1	0.1	7
COc1ccc(C(=O)NN)cc1	1.9%	0	-1.6	-14	-0.2	8
Cc1[nH]n(-c2ccccc2)c(=S)c1C=Nc1cccc([N+](=O)[O-])c1	0.1%	1	-1.4	-31	-0.7	0
CCc1nc(SCc2ccc(OCC(C)C)cc2)n[nH]1	3.4%	6	0.5	-1	0.8	9
O=C(Nc1nnc([C@@H]2C[C@H](O)[C@@H](CO)O2)s1)c1cccc(Oc2ccccc2)c1	0.0%	7	-2.6	-11	-0.4	2
CCCC(=O)Nc1cc(OC)c(OC)cc1C(=O)O	1.3%	1	-5.3	-13	0.4	-1
O=C(C1CCCO1)N1CCN(S(=O)(=O)c2cc(F)ccc2F)CC1 (stereo unspecified)	-1.1%	10	-2.1	11	-0.1	2
CCc1cccc(Nc2c3c(nc4ncnn24)CCC3)c1	-0.3%	-2	0.4	1	1.4	/
Cc1ccccc1NC(=O)COC(=O)/C=C/c1cn(-c2ccccc2)nc1-c1cccnc1	2.1%	1	-1.0	-2	0.9	-5
O=C(Nc1cccnc1)c1ccc(Cl)c(S(=O)(=O)N2CCc3ccccc32)c1	3.0%	6	-2.8	4	1.3	-1
